# Choline anaer gr = inhibitors of anaerobic choline-dependent gram-negative bacterial growth; Gram-negative bacterium anaerobic choline minimal medium, absorbance growth; hits give low values; many inactives read as strong as hits in the columns shown; calls only; 55,000 tested, 0.2% active; AID 1963822;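 active = growth z-score on choline under -2 at 7 or 20 h with little or no fall on glycerol, limits in tiers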;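 note: stock transfer was 300 nL into about 50 µL; the organism is E. coli; final concentration not given here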
# Choline anaer gr early = also measured in Choline anaer gr; calls as there; z-score; measured here: choline growth z-score, timepoint 1;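 score of optical density at 7 h as mean of two plates; lower means less growth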
# Numbers without * were called inactive; i = inactive; & = joins results of further samples. These rows are one share of the data, so the mix of outcomes need not match the whole.
SMILES,Choline anaer gr,Choline anaer gr early
CC[C@@H]1C(=O)OC[C@@H]1Cc1cncn1C,i,0.11&0.33&0.51&1.2
